T cruzi inh: inhibitors of intracellular T. cruzi growth, primary screen, luminescence, NIH3T3 host cells; 300,000 tested, 1.4% active; AID 1885, 2009; inhibition, % (no concentration beside the values); T. cruzi beta-gal in NIH3T3, 90 h;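 active = mean inhibition across valid replicates above about 55%, limit read from the data; inconclusive = mean below that limit but half or more replicates reach it; inactive = mean below it, under half of replicates reach it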;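 also: signal also drops with host cell toxicity which is not excluded here; 0% = plate median of DMSO wells and 100% = zero luminescence signal; higher percent means less beta-gal luminescence so fewer parasites; stock transfer was 50 nL into about 50 µL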
LANA-H2A inh: blockers of LANA interaction with H2A/H2B – biochemical, FP readout, HTS, primary screen; inhibition, % (concentration not given with the values); AID 2629, 2010; cell-free LANA-H2A/H2B peptide, fluorescence polarization; 320,000 tested, 0.6% active; in the data active = inhibition mostly above about 10%, no sharp cut-off; inactive = mostly below about 6.7%;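 also: stock transfer was 7.5 nL into about 10 µL; 0% = median of vehicle wells and 100% = median of positive control wells; one replicate is shown; the record names a cut of 25% in any replicate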
rRNA inh HTS: reduced GFP signal of wild-type E. coli, primary screen, bacterial rRNA inhibitor project, GFP/RFP fluorescence, OD600, single point; E. coli WT GFP vs humanized-ribosome RFP mutants, 24 h; active compounds read low; DMSO median 0, no signal -100; GFP signal change (wild-type ribosome), % (concentration not given with the values); 350,000 tested, 1.6% active; AID 720706, 2013;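 active = significant combined selectivity score with lowered wild-type GFP, culture density cut under 30%, mutant RFP and density less affected; inactive = any of these conditions unmet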; also: one replicate is shown; some compounds called inactive have numbers as strong as hits
Beta2AR agonist: beta2AR agonists driving receptor internalization, primary screen, cell-based, FAP fluorogen, flow cytometry; Beta-2 adrenergic receptor (Homo sapiens), P07550; Am2.2-beta2AR cells; reference of the scale not given here; response, % (test concentration not listed); 340,000 tested, 0.43% active;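 active = response above a set limit, near 3 SD of response in nonfluorescent compounds, cut at about 42% in these data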;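 also: stock transfer was 100 nL into about 11 µL; a reference agonist was the positive control; negative values mostly stem from fluorescent compounds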
Target sequence (P07550 whole entry, looked up): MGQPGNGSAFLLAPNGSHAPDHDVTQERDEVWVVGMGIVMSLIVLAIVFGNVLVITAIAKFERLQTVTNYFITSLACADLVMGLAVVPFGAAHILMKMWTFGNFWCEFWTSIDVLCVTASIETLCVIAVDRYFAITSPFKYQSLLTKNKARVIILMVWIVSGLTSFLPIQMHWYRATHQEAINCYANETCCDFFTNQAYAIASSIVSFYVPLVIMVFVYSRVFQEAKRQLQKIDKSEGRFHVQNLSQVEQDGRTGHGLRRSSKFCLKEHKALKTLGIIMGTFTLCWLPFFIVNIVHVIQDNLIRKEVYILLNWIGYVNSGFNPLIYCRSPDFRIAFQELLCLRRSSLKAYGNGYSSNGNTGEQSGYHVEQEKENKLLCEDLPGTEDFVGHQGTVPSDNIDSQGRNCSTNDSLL
ALR inh: inhibitors of human ALR sulfhydryl oxidase, primary screen, biochemical, H2O2 detection, HRP-luminol luminescence, single point | FAD-linked sulfhydryl oxidase ALR (Homo sapiens), P55789 | purified ALR, DTT oxidation | inhibition, % (no concentration beside the values) | 290,000 tested, 3.8% active | AID 485317, 2010;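 active = mean and each replicate at 75% or more; inconclusive = only one of the two met; inactive = neither met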;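 also: stock transfer was 7.5 nL into about 7.5 µL; 0% = neutral wells and 100% = wells with inactivated enzyme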
Target sequence (P55789 whole entry, looked up): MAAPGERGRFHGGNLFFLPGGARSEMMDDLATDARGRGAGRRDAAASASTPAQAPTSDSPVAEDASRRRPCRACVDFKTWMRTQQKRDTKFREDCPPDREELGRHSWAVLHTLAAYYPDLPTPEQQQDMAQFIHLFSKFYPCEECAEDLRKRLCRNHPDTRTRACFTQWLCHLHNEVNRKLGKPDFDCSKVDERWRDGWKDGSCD
Calb FLC: C. albicans growth inhibition with fluconazole, primary screen, CaCi-2 strain, Alamar Blue fluorescence | C. albicans CaCi-2 (fluconazole-resistant clinical isolate) + fluconazole, 48 h | growth inhibition, % (concentration not given with the values) | 300,000 tested, 0.57% active | AID 1979, 2009;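 active = most replicates above 75%; inconclusive = exactly half above 75%; inactive = most below 75%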;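 also: all wells also contain fluconazole at 8 µg/ml as a sub-toxic cotreatment; 0% = median of DMSO wells and 100% = median of geldanamycin control wells; wells of about 8 µL received 7.5 nL stock; the first replicate is given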
Bfl-1 A1 inh: caspase 3/7 activation in MEF A1-2A-BIM cells, primary screen, A1 inhibitor project, cell-based, luminescence, HTS | 330,000 tested, 0.066% active | caspase activation, % (concentration not given with the values) | Caspase-Glo 3/7 luminescence, 3 h; percent of clofoctol response, vehicle zero;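 active = over half of replicate activation scores above 10%, or exactly half above 10 with the replicate mean above 10; inconclusive = replicate mean below 10 yet half the replicates above 10; inactive = over half of replicates below 10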;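 also: wells of about 30 µL received 50 nL stock; many hits fall short of the cut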
Beta apoptosis: inhibitors of cytokine-induced beta cell apoptosis, primary screen, luminescence; INS-1E cytokine-induced death, ATP luminescence, 48 h; percent of positive-control rescue, neutral wells zero; protection from apoptosis, % (test concentration not listed); 300,000 tested, 0.8% active; AID 435005, 2010;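 active = all replicates at 75% or more, or half of them and the mean; inconclusive = half reach 75% but not the mean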;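 also: 0% = cytokine-treated negative control wells and 100% = positive control rescue; higher means more ATP so stronger rescue from cytokine killing; wells of about 40 µL received 100 nL stock; the first replicate is given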
rRNA inh HTS OD600: also measured in rRNA inh HTS; calls as there; OD600 change, %; measured here: OD600 growth;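 optical density of the mix in the first replicate; 0 = DMSO median and -100 = no signal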
rRNA inh HTS RFP: second read-out of rRNA inh HTS, no call of its own (marks repeat the call); RFP signal change, %; measured here: RFP humanized mutant strains;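 first replicate; 0 = DMSO median and -100 = no signal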
Numbers without * were called inactive; u = inconclusive; x = not tested or not shown. The list is partial (hit frequency here may not be typical).

1) CC(=O)c1ccc(N(C(=O)CNC(=O)c2ccco2)C(C(=O)NC2CCCC2)c2ccncc2)cc1 (stereo not drawn)
2) Cc1ccc(NC(=O)COc2ccc(-n3ccnc3)cc2)cc1Cl
3) COc1ccc(CC2NCCC3(O)CCCCC23)cc1 (stereo not drawn)
4) COc1ccc(CNC(=O)C2CCCN(S(=O)(=O)c3ccc4c(c3)CCCN4C(C)=O)C2)cc1 (stereo not drawn)
5) O=C(Nc1nc(-c2cc(Cl)sc2Cl)cs1)c1ccc(Br)s1
entry no.,1,2,3,4,5
T cruzi inh,0,-24,14,-5,34
LANA-H2A inh,-1.1,0.6,-7.0,-2.5,-3.0
rRNA inh HTS,0,x,x,1,x
rRNA inh HTS OD600,-11,x,x,4,x
rRNA inh HTS RFP,0.0,x,x,-0.6,x
Beta2AR agonist,-1,-16,-1,-7,12
ALR inh,x,-6,5,-3,x
Calb FLC,28,-2,-3,3,25
Bfl-1 A1 inh,-0.4,-0.4,1.7,2.0,-0.1
Beta apoptosis,1,-7,3,6,x

6) OC(COCCC12CC3CC(CC(C3)C1)C2)CN1CCCC1 (stereo not drawn)
7) COc1ccccc1N=NC1C(=O)N(C(N)=S)N=C1C (stereo not drawn)
8) CCOc1ccc(N=C(C)C2=C(O)c3ccccc3C2=O)cc1
9) O=c1[nH]c(-[n+]2ccccc2)c(/C=N/NC([S-])=Nc2ccccc2)s1
10) Cc1cc(SCn2nnc3ccccc3c2=O)nc2ccccc12
entry no.,6,7,8,9,10
T cruzi inh,40,-11,x,-4,14
LANA-H2A inh,6.5,0.0,-0.5,20,2.5
rRNA inh HTS,-12,-4,x,55,-3
rRNA inh HTS OD600,-10,0,x,-14,4
rRNA inh HTS RFP,-0.1,0.5,x,-0.3,9.9
Beta2AR agonist,11,-4,3,-47,-8
ALR inh,-15,u,-2,21,30
Calb FLC,-39,6,2,0,16
Bfl-1 A1 inh,-0.3,0.0,-4.5,0.7,0.1
Beta apoptosis,1,3,-4,-9,2

11) Cc1nn(-c2ccccc2)c(Cl)c1C1C(C#N)=C(N)Oc2c1c(C)nn2-c1ccccc1 (stereo not drawn)
12) CCOC(=O)N1CCN(C(=O)Cn2ncc3c2-c2ccccc2OC3)CC1
13) COc1ccc(N2C(=O)/C(=C/N(C)C)NC2=S)cc1
14) CCC(C)(C)NC(=O)C(c1ccccn1)N(C(=O)c1csnn1)c1ccc(C)cc1 (stereo not drawn)
15) CC(=O)Nc1ccc(NC(=O)Nc2ccccc2)cc1
entry no.,11,12,13,14,15
T cruzi inh,13,-4,-6,-6,-9
LANA-H2A inh,-2.3,3.6,-3.0,-1.6,1.4
rRNA inh HTS,x,6,8,13,7
rRNA inh HTS OD600,x,8,12,7,9
rRNA inh HTS RFP,x,-4.6,2.0,0.3,-1.9
Beta2AR agonist,10,26,-2,1,14
ALR inh,x,-17,70,2,1
Calb FLC,3,-5,-21,-6,-6
Bfl-1 A1 inh,-0.1,-0.6,-0.5,1.3,-4.6
Beta apoptosis,x,3,2,-5,3

16) O=C(NCCc1cn[nH]c1)C1CCC(=O)N(CCc2cccc(F)c2)C1 (stereo not drawn)
17) COc1ccc2[nH]c3c(NCCCN4CCCC4=O)ncnc3c2c1
18) NS(=O)(=O)c1ccc(CCNC(=O)c2ccc(CS(=O)(=O)c3ccc(Br)cc3)o2)cc1
19) O=C1CC(c2ccc3c(c2)OCCO3)Oc2ccc([N+](=O)[O-])cc21 (stereo not drawn)
20) C/C(N)=C(/C#N)C(=O)COC(=O)C1=NN(c2ccccc2)C(=O)CC1
entry no.,16,17,18,19,20
T cruzi inh,-5,2,-5,-9,-12
LANA-H2A inh,0.8,-1.4,4.7,-1.7,3.3
rRNA inh HTS,13,x,11,-1,8
rRNA inh HTS OD600,12,x,16,-11,11
rRNA inh HTS RFP,-1.1,x,3.1,1.5,-0.7
Beta2AR agonist,-4,27,1,9,0
ALR inh,-3,2,-3,-15,-9
Calb FLC,0,9,-16,37,-2
Bfl-1 A1 inh,-0.3,0.3,0.4,-13,-0.6
Beta apoptosis,x,2,-5,9,-3

21) N#CCCN(C(=O)COC(=O)c1ccc2c(c1)OCCO2)c1ccccc1
22) O=C1C=C(NNC(=O)c2ccccc2Br)CCC1
23) O=C(Nc1ccccc1)ON=C1c2ccccc2-c2ccccc21
24) N#CCCN(Cc1cccs1)C(=O)Nc1ccccc1
25) CO/N=C/c1ccc(N2CCOCC2)c([N+](=O)[O-])c1
entry no.,21,22,23,24,25
T cruzi inh,x,2,0,-19,-9
LANA-H2A inh,1.8,-3.6,2.0,2.2,-0.9
rRNA inh HTS,2,23,-35*,6,5
rRNA inh HTS OD600,-2,12,-12*,3,1
rRNA inh HTS RFP,-1.4,1.6,-1.2*,0.6,-3.3
Beta2AR agonist,-6,0,-1,-7,-2
ALR inh,x,35,-32,0,-6
Calb FLC,x,-5,-13,-6,1
Bfl-1 A1 inh,0.4,-0.2,-3.8,0.8,0.5
Beta apoptosis,-2,-2,-10,-3,0

26) CCCCN(CCCC)CCNC(=O)c1cn(C)c2ccc(S(=O)(=O)N(C)C3CCCCC3)cc2c1=O
27) C/C(NC(=O)c1ccccc1F)=C1\C(=O)C[C@@H]2[C@H]1C2(C)C
28) O=[N+]([O-])c1ccc(-c2ccc(/C=N/Nc3nc(N4CCCCC4)nc(N4CCCCC4)n3)o2)cc1
29) Cc1ccc(CNCC(O)c2ccccc2)s1 (stereo not drawn)
30) CCC(=O)Oc1ccc(C(=O)Nc2cccc(NC(=O)c3ccco3)c2)cc1
entry no.,26,27,28,29,30
T cruzi inh,13,17,23,-16,23
LANA-H2A inh,-1.5,2.4,x,8.6,-0.8
rRNA inh HTS,2,x,11,16,3
rRNA inh HTS OD600,8,x,2,17,3
rRNA inh HTS RFP,-2.1,x,0.4,1.0,6.0
Beta2AR agonist,8,3,-218,10,-15
ALR inh,-1,x,x,1,1
Calb FLC,-2,3,u,-13,0
Bfl-1 A1 inh,-0.7,1.2,x,0.5,-1.0
Beta apoptosis,-3,-2,x,-2,-7

31) O=C(Nc1cccc2nsnc12)c1ccc(-c2ccc(Br)cc2)o1
32) CC(c1ccccc1)c1nnc(NC(=O)c2ccc3c(c2)OCO3)s1 (stereo not drawn)
33) Cc1[nH]c(=S)c(C#N)c2c1CCCC2
34) CCc1noc(C)c1C(=O)OC(C)C(=O)Nc1ccccc1OC (stereo not drawn)
35) O=C(O)Cc1c(C(=O)O)nnn1-c1cccc(C(F)(F)F)c1
entry no.,31,32,33,34,35
T cruzi inh,26,-13,0,8,-10
LANA-H2A inh,-3.3,3.4,-5.4,-4.9,-2.3
rRNA inh HTS,x,11,0,-2,13
rRNA inh HTS OD600,x,-2,5,1,10
rRNA inh HTS RFP,x,0.1,-0.4,-1.7,-1.0
Beta2AR agonist,11,-5,-9,-2,5
ALR inh,-29,43,-2,1,1
Calb FLC,8,-8,-3,3,19
Bfl-1 A1 inh,-0.7,0.3,0.0,1.0,0.8
Beta apoptosis,-2,-4,-8,-4,-2

Pulled one by one from the entries so far (3):
35) O=C(O)Cc1c(C(=O)O)nnn1-c1cccc(C(F)(F)F)c1
31) O=C(Nc1cccc2nsnc12)c1ccc(-c2ccc(Br)cc2)o1
34) CCc1noc(C)c1C(=O)OC(C)C(=O)Nc1ccccc1OC (stereo not drawn)
entry no.,35,31,34
T cruzi inh,-10,26,8
LANA-H2A inh,-2.3,-3.3,-4.9
rRNA inh HTS,13,x,-2
rRNA inh HTS OD600,10,x,1
rRNA inh HTS RFP,-1.0,x,-1.7
Beta2AR agonist,5,11,-2
ALR inh,1,-29,1
Calb FLC,19,8,3
Bfl-1 A1 inh,0.8,-0.7,1.0
Beta apoptosis,-2,-2,-4

The list goes on.
36) CN(CCC#N)C(=O)CC(Cc1ccccc1)C1CCOC(C)(C)C1 (stereo not drawn)
37) CCS(=O)(=O)c1ccc2oc(=O)c(/C=C(\O)c3ccc(Cl)cc3)nc2c1
38) CC(C)CC(=O)N1CCN(Cc2ccc(C(F)(F)F)cc2)CC1
39) N=c1c2c(ncn1CCN1CCOCC1)Oc1cc(O)ccc1C2c1ccccc1 (stereo not drawn)
40) COc1ccc(C(=O)N2CCN(c3ccccc3Cl)CC2)cc1S(=O)(=O)NC1CC1
entry no.,36,37,38,39,40
T cruzi inh,1,-20,5,-12,x
LANA-H2A inh,2.0,-2.4,0.7,-2.2,3.1
rRNA inh HTS,5,4,10,-10,-6
rRNA inh HTS OD600,-5,7,7,-6,-18
rRNA inh HTS RFP,1.3,-0.4,-1.7,-2.8,1.7
Beta2AR agonist,-14,5,9,-16,1
ALR inh,-7,28,-2,12,-4
Calb FLC,-1,6,-18,-4,x
Bfl-1 A1 inh,1.1,-0.1,-1.6,-0.3,-1.0
Beta apoptosis,-2,0,-5,4,-11

41) O=C(CN(Cc1ccco1)Cc1cccs1)N1CCN(S(=O)(=O)c2cccc(F)c2)CC1
42) C/C(=N\NC(=O)c1ccc([N+](=O)[O-])cc1)c1c(O)cc(C)oc1=O
43) CC(C)(C)C1CCC(=NNC(=O)CC(=O)NCc2ccccc2)CC1 (stereo not drawn)
44) CC(=O)Nc1ccccc1OC(C)C(=O)N1CC(C)CC(C)C1 (stereo not drawn)
45) CC(=O)N1CCc2cc(S(=O)(=O)NC(Cc3ccccc3)C(=O)NCCN3CCCCC3C)ccc21 (stereo not drawn)
46) Cc1ncc(CO)c2c1Oc1nc(-c3ccccc3)nc(SCC(=O)N3CCCCC3)c1C2
47) CN(Cc1nc(-c2cccs2)no1)CC1COCCO1 (stereo not drawn)
entry no.,41,42,43,44,45,46,47
T cruzi inh,x,-2,12,-1,0,13,-4
LANA-H2A inh,-4.0,1.9,4.6,-1.6,0.0,0.8,-3.9
rRNA inh HTS,-17,24,6,5,9,-12,x
rRNA inh HTS OD600,-30,18,3,3,4,4,x
rRNA inh HTS RFP,1.6,-0.3,-6.4,0.9,-0.1,16,x
Beta2AR agonist,5,1,8,8,-15,10,0
ALR inh,0,1,3,x,-1,17,1
Calb FLC,x,-23,17,6,-9,-9,-9
Bfl-1 A1 inh,-1.4,-5.4,0.2,0.3,0.3,1.9,0.2
Beta apoptosis,4,-1,-3,-4,0,11,-5
